Bioassay records deposited in PubChem BioAssay by National Center for Advancing Translational Sciences (NCATS).
GLA inh pH 4.5: blocks human alpha-galactosidase A at pH 4.5; P06280; purified enzyme, 4-MU-alpha-Gal fluorescence, pH 4.5; activity change, negative = inhibition, % at 105 µM; 230,000 tested, under 10 active; inconclusive = small, poorly fitted or top-dose-only inhibition, or a rising curve; inactive = flat fitted curve, though single readings scatter; no compound was filed as active;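 also: 0% = full activity with enzyme and -100% = basal without enzyme; dose as in the result columns while the protocol names 77 µM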
Target sequence (P06280 whole entry, looked up): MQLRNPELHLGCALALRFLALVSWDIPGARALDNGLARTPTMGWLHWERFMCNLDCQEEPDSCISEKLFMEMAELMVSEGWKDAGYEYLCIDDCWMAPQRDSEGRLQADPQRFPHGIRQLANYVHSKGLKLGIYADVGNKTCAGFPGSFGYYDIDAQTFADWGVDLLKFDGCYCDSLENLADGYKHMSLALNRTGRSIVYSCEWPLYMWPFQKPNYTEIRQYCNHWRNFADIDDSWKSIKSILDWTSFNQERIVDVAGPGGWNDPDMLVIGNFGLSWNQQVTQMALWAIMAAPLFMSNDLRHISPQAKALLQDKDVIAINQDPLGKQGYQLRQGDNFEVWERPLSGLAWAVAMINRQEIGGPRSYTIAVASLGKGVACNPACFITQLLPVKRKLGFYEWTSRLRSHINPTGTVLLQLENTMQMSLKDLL
Rango complex inh: inhibitors of Rango-importin beta complex formation | Q14974 | Rango CFP/YFP FRET sensor + importin beta, 45 min | Potency, µM (series often up to 92.2 µM), without a hit: top-dose inhibition of complex formation | 340,000 compounds, 0.031% hits | AID 540263; active = rising FRET ratio curve, often small or poorly fitted; inconclusive = mostly compound fluorescence or quenching in the first reads; inactive = flat curves in all reads;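 also: potency is read from the fitted curve at half-maximal effect; 0% = DMSO wells and 100% = buffer wells lacking importin beta; nearly all actives have a fitted effect of over 15% in size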
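Inhibition scored from the CFP 486 nm/YFP 530 nm FRET ratio 45 min after adding 0.125 microM importin beta to 50 nM Rango biosensor preincubated 5 min with compound (room temperature, PBS with DTT, Tween-20, BSA). No-importin wells as positive control.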
miR-21 FLuc: miR-21 reporter, rising signal; AID 2288; 340,000 tested, under 10 active; HeLa miR-21 FLuc reporter, luciferase, 48 h; Potency, µM (series often up to 38.3 µM), for inactives: top-dose reporter change, positive = more light; active = well fitted rising curve with a large enough effect; inconclusive = small, poorly fitted or top-dose-only effect; inactive = no such curve, though single readings can be large or run the other way;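 also: % of control where 0% means no effect; miR-21 action dims this reporter so a rising signal means less miR-21 action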
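HeLa cells endogenously expressing miR-21, stably carrying CMV-driven firefly luciferase with a downstream miR-21 binding site, 2000 cells/well. Titrations up to approximately 40 uM, 48 hours; luciferase luminescence read.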
Rango release inh: inhibition of RanGTP-driven Rango-importin beta dissociation | Potency, µM (highest dose often 46.1 µM), without a hit: at the highest dose activity change, negative = inhibition | 340,000 compounds, 0.071% hits | Biochemical FRET Rango-importin beta, RanGTP-induced dissociation; active means falling FRET ratio curve, often poorly fitted, with flat reads before Ran was added; inconclusive means other falling curves, or compound fluorescence or quenching; inactive means flat or rising ratio curve;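 also: potency is read from the fitted curve at half-maximal effect; % of control where 0% means no effect; nearly all actives have a fitted effect of over 45% in size; -100% = wells without RanGTP and RCC1; the record marks most hits as doubtful in a second field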
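Recombinant Rango FRET biosensor (EYFP–snurportin 1 IBB–cerulean CFP10) at 0.1 uM premixed with 0.25 uM importin beta in PBS, 1 mM DTT, 0.02% Tween-20, 0.1% BSA. Compound added 5 min; RanGTP-RCC1 (0.6 uM Ran, 2 mM GTP, 0.2 uM RCC1) then triggers release, read at 45 min.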
Active calls of the source: *; ? = inconclusive; . = no result given; & = joins results of further samples; [ ] = another dose, or the depositor's remark.

no.	GLA inh pH 4.5	Rango complex inh	miR-21 FLuc	Rango release inh	mol
1	9	0.3%	-8%	0%	CCOC(=O)c1c(-c2ccccc2)nnn1-c1nc(OC)nc(N2CCOCC2)n1
2	7	-0.8%	22%	7%	CCOC(=O)C1CCN(c2c(Nc3cc(C)cc(C)c3)c(=O)c2=O)CC1
3	.	-1.6%	0%	0%	CCOc1cc(/C=N/NC(=O)c2nnn(-c3nonc3N)c2C)ccc1OCc1ccc(F)cc1
4	.	0.8%	.	-27%	CCN1CCN(c2ccc(S(=O)(=O)N3CCOCC3)cc2NC(=O)c2cccc([N+](=O)[O-])c2)CC1
5	1	.	1%	.	CCN(CC)S(=O)(=O)c1ccc(NC(=O)c2nc3nc(C)cc(C)n3n2)cc1
6	-7	?	0%	?	COc1ccc(C(=O)OCc2cc3cccc(C)c3[nH]c2=O)cc1
7	1	?	-1%	-21%	Cc1cc(SCC(=O)OC/C(O)=C(\C#N)c2nc3ccccc3[nH]2)c(C)cc1Br
8	.	-0.8%	-3%	10%	COCCNC(=O)CCCn1c(=O)c2ccccc2n(Cc2ccccc2C#N)c1=O
9	-6	2.1%	-7%	0%	COc1cc(S(=O)(=O)N2CCOCC2)ccc1NC(=O)COC(=O)C12CC3CC(CC(C3)C1)C2
10	-4	-0.1%	1%	-8%	CC(C(=O)Nc1ccccc1-c1ccccc1)N1CCN(C(=O)c2ccccc2)CC1 (stereo not given)
11	-22	-1.9%	-18%	7%	COc1ccccc1-c1ccc(/C=N/O)o1
12	6	-1.1%	-2%	-1%	Cc1nc2sc(C(c3ccc(F)cc3)N3CCOCC3)c(O)n2n1 (stereo not given)
13	.	4.8%	-1%	0%	COCCOC(=O)C1=C(C)NC(=O)NC1c1cccc2ccccc12 (stereo not given)
14	.	1.7%	-31%	-9%	CC(C)(CNC(=O)CO/N=C1/C=C2CCC3C(C(O)C[C@@]4(C)C3CC[C@]4(O)C(=O)CO)[C@@]2(C)CC1)C(O)C(=O)O (stereo not given in full)
15	-5	-1.9%	-5%	7%	COc1ccc(/C=C/C(=O)O)cc1S(=O)(=O)NC1CCS(=O)(=O)C1 (stereo not given)
16	0	-0.3%	22%	?	O=C(NCC(c1cccs1)N1CCOCC1)c1ccc(Br)o1 (stereo not given)
17	-14	-0.9%	-2%	2%	CCOC(=O)c1cnc(SC)nc1Sc1ccccc1Cl
18	-4	-0.4%	-15%	1%	COc1cccc(C(=O)NCC(=O)NNc2ncnc(N)c2[N+](=O)[O-])c1
19	.	0.2%	.	?	O=C1CCC2(CCCCC2)N1
20	4	0.6%	4%	3%	CC(C)NC(=O)c1ccccc1NC(=O)CS(=O)(=O)Cc1ccccc1
21	8	3.5%	-7%	3%	Cn1c(=O)c2c(-c3ccc(C(C)(C)C)cc3)n(N3CCOCC3)cc2n(C)c1=O
22	0[21.1 µM]	0.0%	-1%	4%	COc1cccc(/C=C2\N=C(C3CCCCC3)OC2=O)c1OC
23	4	-0.6%	-36%	27%	CCCc1cc(C(=O)NCc2ccc(OC)cc2)no1
24	25	?	5%	?	Cc1ccc(-n2c(=O)c(C#N)cc3c(=O)n4cccc(C)c4nc32)cc1
25	.	-2.2%	18%	-1%	CCN(CC)S(=O)(=O)c1ccc(N2CCN(c3ccccc3O)CC2)nc1
26	.	0.1%	-3%	-11%	O=C(NNS(=O)(=O)c1ccc(F)cc1)c1ccccc1
27	.	-1.9%	-6%	-23%	Cc1ccc(F)cc1NC(=O)N1CCNC(=O)C1CC(=O)Nc1cc(Cl)ccc1Cl (stereo not given)
28	-12	1.7%	-1%	-5%	O=C(Nc1ccc(N2C(=O)C3C4C=CC(C4)C3C2=O)cc1)Nc1nncs1 (stereo not given)
29	-10	-1.6%	6%	-1%	Cc1ccc(C(=O)NCCc2ccc(S(N)(=O)=O)cc2)cc1[N+](=O)[O-]
30	-2	2.8%	0%	-5%	CCc1ccccc1N1CC(C(=O)O)CC1=O (stereo not given)

Of the compounds above, four have fluorine.
no.	GLA inh pH 4.5	Rango complex inh	miR-21 FLuc	Rango release inh	mol
3	.	-1.6%	0%	0%	CCOc1cc(/C=N/NC(=O)c2nnn(-c3nonc3N)c2C)ccc1OCc1ccc(F)cc1
12	6	-1.1%	-2%	-1%	Cc1nc2sc(C(c3ccc(F)cc3)N3CCOCC3)c(O)n2n1 (stereo not given)
26	.	0.1%	-3%	-11%	O=C(NNS(=O)(=O)c1ccc(F)cc1)c1ccccc1
27	.	-1.9%	-6%	-23%	Cc1ccc(F)cc1NC(=O)N1CCNC(=O)C1CC(=O)Nc1cc(Cl)ccc1Cl (stereo not given)

Ordered by length of the SMILES (high to low): part of the list above
no.	GLA inh pH 4.5	Rango complex inh	miR-21 FLuc	Rango release inh	mol
14	.	1.7%	-31%	-9%	CC(C)(CNC(=O)CO/N=C1/C=C2CCC3C(C(O)C[C@@]4(C)C3CC[C@]4(O)C(=O)CO)[C@@]2(C)CC1)C(O)C(=O)O (stereo not given in full)
4	.	0.8%	.	-27%	CCN1CCN(c2ccc(S(=O)(=O)N3CCOCC3)cc2NC(=O)c2cccc([N+](=O)[O-])c2)CC1
5	1	.	1%	.	CCN(CC)S(=O)(=O)c1ccc(NC(=O)c2nc3nc(C)cc(C)n3n2)cc1
26	.	0.1%	-3%	-11%	O=C(NNS(=O)(=O)c1ccc(F)cc1)c1ccccc1
11	-22	-1.9%	-18%	7%	COc1ccccc1-c1ccc(/C=N/O)o1

More entries.
no.	GLA inh pH 4.5	Rango complex inh	miR-21 FLuc	Rango release inh	mol
31	3	1.3%	-5%	-13%	O=C(NCCc1ccccc1)C1CCCN(S(=O)(=O)c2cccs2)C1 (stereo not given)
32	.	-0.7%	-11%	5%	O=C(O)c1cc([N+](=O)[O-])c(Nc2cccc3ccccc23)c([N+](=O)[O-])c1
33	-14	-0.1%	-12%	-4%	CC1CCC2C(=O)N(c3cccc(OS(=O)(=O)c4ccccc4)c3)C(=O)C2C1 (stereo not given)
34	1	-4.9%	22%	-16%	Cc1nc2ccccc2n1CC(O)COc1ccccc1Cl (stereo not given)
35	.	-0.8%	-2%	-3%	CC(C)(C)C(=O)CN1C(=O)NC2(CCc3ccccc32)C1=O (stereo not given)
36	-4	3.2%	?	-8%	Clc1ccc(SCc2cc(N3CCOCC3)nc(-c3ccccn3)n2)cc1
37	-2	-4.4%	0%	-3%	CC1(C)CC(=O)c2sc(NS(=O)(=O)c3ccccc3)nc2C1
38	.	0.2%	-5%	-3%	Cc1c(CC(=O)N[C@@H](C)C(=O)O)c(=O)oc2cc3occ(-c4ccccc4)c3cc12
39	.	5.0%	-5%	1%	COC(=O)c1cn(C(=O)c2ccc(F)cc2)c2ccccc12
40	-6	?	-14%	?	CCc1ccccc1NC(=O)/C(C#N)=C/c1ccc(Sc2ccccc2)o1
41	2	-0.8%	-53%	7%	Cc1nc2c(-c3ccccc3)c[nH]n2c(=O)c1Cc1ccccc1
42	0	5.1%	4%	-2%	CCC(=O)N1CCC2(CC1)Oc1ccc(F)cc1C(=O)C21CC(c2cccnc2)=NO1 (stereo not given)
43	-30	.	-29%	.	COc1cccc2[nH]c3c(N4CCN(Cc5ccc6c(c5)OCO6)CC4)ncnc3c12
44	2	0.9%	-3%	9%	O=C(NCc1nnc(SCC(=O)N2CCCC2)o1)c1ccccc1F
45	.	?	13%	9%	Cc1ccc(N2CC(C(=O)Nc3nc4ccc(S(C)(=O)=O)cc4s3)CC2=O)cc1C (stereo not given)
46	.	?	.	-18%	COc1ccc(-c2c(-c3cc(OC)cc(OC)c3)n(C)c3ccc(-c4ccc(OC)cc4F)cc23)cc1
47	2	-0.6%	-3%	0%	CCOc1ccc(-n2nc(C(=O)N3CCN(CC)CC3)c3ccccc3c2=O)cc1
48	1	-3.4%	0%	1%	COc1cc2c(cc1O)[C@@H]1Cc3cc(O)c(OC)cc3[C@H](C2)N1C
49	0	-0.6%	-6%	-10%	CCOC(=O)c1c(C)[nH]c(C(=O)COC(=O)CNC(=O)c2ccc(Cl)cc2Cl)c1C
50	3	?	14%	?	Nc1ccc2oc(-c3cccc4ccccc34)nc2c1
51	-5	-0.1%	0%	1%	COc1ccc(C2/C(=C(/O)c3ccc(C)cc3)C(=O)C(=O)N2C)cc1 (stereo not given)
52	8	0.0%	-5%	1%	C=CCc1ccc(OCCCCNC(C)CC)c(OC)c1 (stereo not given)
53	-2	?	-4%	?	CCOC(=O)C1=NN(c2ccc(OC)cc2)C2C(=O)N(c3ccccc3OC)C(=O)C12 (stereo not given)
54	.	-2.1%	.	-7%	O=C1CC(N2CCN(S(=O)(=O)c3ccccc3F)CC2)C(=O)N1c1ccccc1Cl (stereo not given)
55	.	2.8%	1%	-11%	CC(C)Oc1ccc(/C=C(/NC(=O)c2ccccc2)C(=O)NC(Cc2ccccc2)C(=O)O)cc1 (stereo not given)
56	.	3.3%	3%	-6%	COc1ccc(NC(=O)C2CCN(S(=O)(=O)c3ccc4c(c3)CC(C)N4C(C)=O)CC2)c(OC)c1 (stereo not given)
57	4	-1.5%	-45%	6%	COC(=O)c1cccc(NC(=O)C2COc3ccccc3O2)c1C (stereo not given)
58	1	.	-2%	.	COc1cccc(NC(=O)C(c2ccccc2)N2CCNC(=O)C2)c1 (stereo not given)
59	.	5.8%	4%	12%	COc1ccc(CN2CCN(Cc3c[nH]c4ccccc34)CC2)cc1
60	-1	?	-4%	-29%	Cc1cccc(C)c1NC(=O)CC1SC2=NCCN2C1=O (stereo not given)
61	-3	-1.3%	-52%	9%	Cc1ccc(-c2csc(/C(C#N)=C(\O)CCl)n2)cc1
62	7&1	3.5%	-38%	4%	CC1(C(=O)NCCN2CCOCC2)C=CC2(CCCCC2)N1C(=O)c1ccccc1 (stereo not given)
63	-7	-1.1%	-2%	8%	O=C(CSc1ccc2nnc(-c3cccnc3)n2n1)N1CCOCC1
64	.	-1.8%	.	-5%	COC(=O)[C@@H]1OC(=O)[C@H]2O[C@@]23[C@@]1(C)CC[C@@H]1[C@@]2(C)C=CC(=O)OC(C)(C)[C@@H]2CC(=O)[C@]13C
65	-12	0.2%	-12%	16%	O=[N+]([O-])c1ccc(N2CCOCC2)cc1N1CCCCC1
66	4	?	1%	-7%	COc1cccc(NC(=O)C23CCC(C)(C(=O)O2)C3(C)C)c1 (stereo not given)
67	4	2.4%	3%	13%	O=C(COc1ccccc1Cl)Nn1cnnc1
68	.	-1.7%	0%	13%	COc1ccc(S(=O)(=O)N2CCC(C(=O)NCC3CCCCC3)CC2)cc1
69	3	1.9%	-9%	7%	CCCCNC(=O)CN(C1CCCCC1)S(C)(=O)=O
70	.	-3.0%	.	2%	O=S(=O)(O)c1cc2oc(-c3ccccc3)nc2c2ccccc12
71	3	-2.0%	2%	12%	O=C(CSc1nnc(NC(=O)Cc2ccccc2)s1)NCC1CCCO1 (stereo not given)
72	2	1.7%	-5%	-8%	Cc1cc(NC(=O)c2cc(C3CC3)on2)n(-c2ccccc2)n1
73	1	3.5%	3%&1%	8%	Cc1cccc(C2N=C(N)Nc3nc4ccccc4n32)c1 (stereo not given)
74	.	0.6%	0%	23%	COc1cccc(CNC(=O)Cn2nc(C)c3c(C)n(-c4ccc(C)cc4)nc3c2=O)c1OC
75	?	0.3%	13%	5%	O=C(Nc1ccc(-c2nc3ccccc3o2)cc1)c1cc(-n2cnnc2)ccc1Cl
76	-2	0.0%	-1%	-14%	CN(C(=O)c1cccs1)c1ccccc1C(=O)O
77	.	1.7%	.	-5%	Cc1cc(C)nc(SCC(=O)NNS(=O)(=O)c2ccc(C#N)cc2)n1
78	3	?	-71%	?	O=c1cccccc1NN=C1CCCCC1
79	-3	0.1%	-4%	4%	CN(C)c1c([N+](=O)[O-])ncn1C
80	7	?	1%	-15%	CCOC(=O)c1cc2sccc2n1CC(=O)N1CCN(C(=O)c2ccco2)CC1

An excerpt, so the mix of outcomes need not match the whole.
